Assay outcomes (PubChem BioAssay)
D2 ag: agonists of human D2 dopamine receptor (beta-arrestin). activation, % (concentration not given with the values). DiscoveRx PathHunter D2 beta-arrestin, luminescence, 90 min; 100% = 57 uM dopamine signal. 360,000 tested, 0.084% active. P14416; in the data active = activation above about 40%; inconclusive = about 15% to 40%; inactive = below about 15%; also: compound concentration not given in the record; the text of the record calls up to 30% inactive
Target sequence (P14416 whole entry, looked up): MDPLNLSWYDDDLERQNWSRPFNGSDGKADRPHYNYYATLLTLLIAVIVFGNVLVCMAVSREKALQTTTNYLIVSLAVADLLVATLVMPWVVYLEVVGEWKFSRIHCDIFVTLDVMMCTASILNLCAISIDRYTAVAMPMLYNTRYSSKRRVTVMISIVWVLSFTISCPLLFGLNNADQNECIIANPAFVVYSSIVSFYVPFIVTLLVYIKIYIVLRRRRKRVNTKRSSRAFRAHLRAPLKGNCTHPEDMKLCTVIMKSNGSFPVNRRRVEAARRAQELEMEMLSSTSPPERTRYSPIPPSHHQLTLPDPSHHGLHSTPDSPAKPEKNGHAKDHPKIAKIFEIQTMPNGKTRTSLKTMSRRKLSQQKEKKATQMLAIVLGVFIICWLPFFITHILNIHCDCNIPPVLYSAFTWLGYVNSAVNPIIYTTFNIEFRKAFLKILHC
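Agonist mode: compounds alone added to overnight-plated D2 PathHunter cells for 90 min at 37 C, with 57 uM final dopamine (EC100) defining full response. Beta-arrestin recruitment detected by chemiluminescent reagent, read after 1 h at ambient temperature.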
gsp antag: antagonists of gsp mutant (McCune-Albright syndrome); gsp-mutant cells, cAMP HTRF, 30 min; control for the full effect not named in the record; Potency, µM (highest dose often 76.9 µM), for the others: at the highest dose activity change, negative = inhibition, actives largely listed as inhibitors; 340,000 tested, 0.4% active; AID 624288; active = falling curve of any shape with a large fitted effect; inconclusive = falling curve, mostly with a smaller effect; inactive = flat or rising curve; cell line not stated here;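 also: intracellular cAMP measured with PDE inhibitor Ro 20-1724 present during compound exposure; potency is read from the fitted curve at half-maximal effect; % is scaled to controls: 0 for no effect and ±100 for the full control effect; nearly all actives have a fitted effect of over 65% in size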
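HTRF cAMP read-out (cAMP-d2 plus anti-cAMP antibody-K in lysis buffer, 30 min RT). Before lysis, cells are exposed to compounds with […] for 30 min at 37C in DPBS containing Ca/Mg, BSA and Tween 20.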
gsp agonist: gsp mutant agonism | Potency, µM (series often up to 76.9 µM), without a hit: at the highest dose activation (cAMP increase), usual class: activators | gsp mutant cells, cAMP HTRF, 30 min; control for the full effect not named in the record | 340,000 tested, 0.13% active; active = well fitted activation curve with a large enough effect; inconclusive = small, poorly fitted or top-dose-only effect, or another doubt; inactive = no such curve, though single readings can be large or run the other way; cell line not stated here;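 also: phosphodiesterase inhibitor Ro 20-1724 added with compounds to block cAMP breakdown; potency is read from the fitted curve at half-maximal effect; nearly all actives have a fitted effect of over 60% in size; about a fifth of the inactives were tested at one dose only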
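Cells stably selected in G418 were plated at 2000/well, grown 16-24 hr, then given compounds in DMSO with the PDE inhibitor […] (300 uM solution added) for 30 min at 37C; cAMP was read by HTRF.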
Sfp inh: blocks B. subtilis Sfp PPTase activity; Biochemical Sfp PPTase activity, qHTS; Potency, µM, for the others: max response, negative = inhibition, actives largely listed as inhibitors; 310,000 tested, 3.5% active; active = well fitted inhibition curve with a large enough effect; inconclusive = small, poorly fitted or top-dose-only effect, or another doubt; inactive = no such curve, though single readings can be large or run the other way;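 also: the enzyme is Sfp with the accession as filed and its product quenches rhodamine fluorescence; potency is read from the fitted curve at half-maximal effect; 0% = enzyme reaction without inhibitor and -100% = no enzyme wells; top concentration of the series not given in the record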
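After 15 min at room temperature with compound, 15 nM Sfp received 5 uM rhodamine-CoA plus 12.5 uM BHQ-2-ybbR (50 mM Hepes pH 7.6, 10 mM MgCl2). Rate came from the fluorescence difference over 30 min, ex 525/em 598 nm.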
Menin-MLL FL inh: displaces fluorescein MLL peptide from human menin | Fluorescence polarization, fluorescein-MLL peptide displacement from menin | FP activity change, % at 61.4 µM | 290,000 tested, under 10 active; inconclusive = falling polarisation curve, or a change in total fluorescence; inactive = total fluorescence flat and polarisation flat or rising; no compound was filed as active; the % refers to the polarisation; negative = inhibition;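 also: % of control where 0% means no effect; inhibitors lower the polarisation; unlabelled MLL peptide was the positive control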
ClpP mod: qHTS Assay for Activators of ClpP. purified B. subtilis ClpP, FRET peptide cleavage, 20 min. 340,000 tested, 1.9% active. Potency, µM (series often up to 57.5 µM), for the others: top-dose activity change, negative = active. ATP-dependent Clp protease proteolytic subunit (Bacillus subtilis (strain 168)), P80244; active = well fitted falling curve with a large enough effect; inconclusive = small, poorly fitted or top-dose-only effect; inactive = no such curve, though single readings can be large or run the other way; also: potency is read from the fitted curve at half-maximal effect; the source files actives as falling curves though it sought activators and does not explain the sign; nearly all actives have a fitted effect of over 65% in size; many hits overshoot -100%
Target sequence (P80244 whole entry, looked up): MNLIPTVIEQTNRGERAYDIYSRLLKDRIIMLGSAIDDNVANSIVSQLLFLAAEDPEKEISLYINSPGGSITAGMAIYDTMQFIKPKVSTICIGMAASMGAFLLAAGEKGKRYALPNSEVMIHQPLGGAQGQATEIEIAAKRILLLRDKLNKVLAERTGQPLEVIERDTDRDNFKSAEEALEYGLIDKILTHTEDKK
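Buffer: 100 mM Tris/HCl pH8, 100 mM KCl, 0.05% low protease BSA, 2.5% glycerol, 0.01% Tween-20. ClpP 10 microg/mL final; 20 min RT; delta FRET normalized to ADEP and DMSO controls.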
PINK1 modulator: PINK1 expression modulation; PINK1 immunofluorescence, high-content cytometry, 24 h; Potency, µM (doses to about 76.6 µM), for inactives: at the highest dose activation (PINK1 increase), usual class: activators; 410,000 tested, 0.2% active; AID 624263; active = well fitted activation curve with a large enough effect; inconclusive = small, poorly fitted or top-dose-only effect; inactive = flat fitted curve, though single readings scatter; cell line not stated here;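 also: potency is read from the fitted curve at half-maximal effect; % of control where 0% means no effect; nearly all actives have a fitted effect of over 65% in size; a mitochondrial uncoupler was the plate control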
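Measures PINK1 amount and localization on or inside mitochondria by immunofluorescence. Stable cells get compounds at 5 concentrations for 24 hours before fixation and staining; CCCP controls included.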
The depositor's hits bear a star; ? = inconclusive; nt = no result given; & = joins results of further samples; [ ] = remark or other dose.

SMILES | D2 ag | gsp antag | gsp agonist | Sfp inh | Menin-MLL FL inh | ClpP mod | PINK1 modulator
COc1ccc(Cl)cc1-c1noc([C@@H]2O[C@H](CO)[C@H](O)[C@H](O)[C@H]2O)n1 | -1.9 | nt | nt | nt | nt | -0.9% | 2.0%
CCN1CCN(c2ccc(NC(=O)c3cccc4ncccc34)cc2)CC1 | -1.8 | 1% | -45%[inhibitor] | 4% | 4.0 | -1.1% | 1.5%[38.3 µM]
CCN(CC)S(=O)(=O)c1ccc(NC(=O)c2cc(=O)[nH]c3ccccc23)cc1 | 0.3 | -3% | ? | -1% | 1.4 | nt | -0.1%
COc1cccc(NC(=S)N2CCN(C(c3ccccc3)c3ccccc3)CC2)c1 | -3.7 | 1% | -6% | 1% | 2.1 | -9.2% | -2.3%
S=c1[nH]nc(-c2ccccc2)n1/N=C/c1cccc(Br)c1 | 3.3 | -17% | -2%[15.4 µM] | 10% | -1.1 | -0.4% | 3.5%
C=CCn1c(-c2cc3cccc(OC)c3o2)n[nH]c1=S | -0.9 | -13% | 6%[15.4 µM] | -11% | -4.7 | nt | -0.8%
c1cncc(CNc2ncnc3ccc(-c4ccoc4)cc23)c1 | nt | nt | nt | -4% | 18 | nt | 0.4%&0.5%
Cc1ccccc1N1CCN(CCCN2C(=O)CC(=C(c3ccccc3)c3ccccc3)C2=O)CC1 | -2.7 | -4% | -3% | -15% | ? | -1.8% | 13%
Cc1[nH]ccc(=O)c1OCc1ccc(Cl)cc1 | -1.9 | 7% | ? | 9% | 2.7 | -1.1% | -4.7%
O=C(CCc1nnc(C2CCCCC2)o1)N1CCN(c2ccccc2F)CC1 | 0.5 | 4% | -5% | 2% | 10 | 0.3% | -0.6%
O=C(COc1ccc(Br)cc1)OCC(=O)c1ccc[nH]1 | -2.2 | nt | ? | nt | nt | 0.1% | 0.2%
COc1ccccc1N(C(=O)c1snc(C(N)=O)c1N)C(C(=O)NCCC(C)C)c1ccco1 (configuration not stated) | 0.9 | -6% | -24% | 19% | 1.8 | 395% | ?
O=C1[C@H]2CC3C=CC2(O3)[C@@H]2OCCCN12 (some centres not stated) | -2.9 | 6% | -27% | nt | nt | -1.0% | 1.1%
COC(=O)c1cc(NC(=O)c2ccc(Cn3cc(Cl)cn3)o2)cc(C(=O)OC)c1 | -2.8 | 2% | 7% | -12% | 0.9 | -17% | 0.4%
O=C1CNC(=S)N1Cc1ccccc1 | -7.3 | -1% | -9% | 7% | 5.0 | 3.8% | 0.1%
Cc1cc2c(SCC(=O)Nc3ccccc3O)ncnc2s1 | -5.4 | 9% | 8%[15.4 µM] | nt | nt | nt | -0.5%
COc1ccccc1-c1cc(C(=O)N/N=C/c2ccc(C)s2)c2ccccc2n1 | -6.6 | 3% | -18% | 3% | 1.1 | -4.5% | -3.2%
O=C1CC(c2ccc3c(c2)OCO3)c2cc3c(cc2N1)OCO3 (configuration not stated) | 0.9 | -17% | -2% | 6% | 0.9 | 1.5% | 1.2%
CCOc1ccc(S(=O)(=O)NCCC(=O)NCC(c2cccs2)N2CCOCC2)cc1 (configuration not stated) | -3.1 | 0% | 3% | -16% | nt | 15% | -2.2%
CCCCCCCN1CCC(=O)N([C@H](CO)c2ccccc2)CC1 | -1.8 | 7% | -8% | -2% | -4.2 | -1.9% | 1.0%

2 entries drawn at random from those above, as already listed:
SMILES | D2 ag | gsp antag | gsp agonist | Sfp inh | Menin-MLL FL inh | ClpP mod | PINK1 modulator
O=C1[C@H]2CC3C=CC2(O3)[C@@H]2OCCCN12 (some centres not stated) | -2.9 | 6% | -27% | nt | nt | -1.0% | 1.1%
COc1ccccc1-c1cc(C(=O)N/N=C/c2ccc(C)s2)c2ccccc2n1 | -6.6 | 3% | -18% | 3% | 1.1 | -4.5% | -3.2%

(next part)
SMILES | D2 ag | gsp antag | gsp agonist | Sfp inh | Menin-MLL FL inh | ClpP mod | PINK1 modulator
CC1CCCN(C(=O)Nc2cccc(NC(=O)N3CCCC(C)C3C)c2)C1C (configuration not stated) | -4.3 | 2% | 16% | -3% | 0.0 | ? | -1.9%
COC(=O)c1sccc1NC(=O)c1c(F)c(F)c(F)c(F)c1F | 0.8 | 12% | 4%[15.4 µM] | nt | nt | nt | -0.8%
Cc1ccc(Cn2c(=N)n(CC(=O)c3ccccc3)c3ccccc32)cc1 | -2.0 | -2% | -14% | ? | 0.5 | -21% | -1.2%
CC(OC(=O)Cc1ccsc1)C(=O)Nc1ccc(C(N)=O)cc1 (configuration not stated) | 2.2 | 10% | 25% | nt | nt | -2.1% | -0.8%
Clc1ccc(-n2cnnn2)cc1 | 1.3 | 3% | -6% | 12% | 2.9 | -3.8% | -2.4%
COc1ccc(CN2CCN(S(=O)(=O)c3ccc(NC(C)=O)cc3)CC2)c(OC)c1OC | -3.0 | -6% | -41%[inhibitor] | ? | -0.3 | 0.1%&-1.8% | 3.0%&0.2%
CCC(=O)Nc1cc(ON=C(C)C)cc([N+](=O)[O-])c1 | -1.1 | 12% | -16% | 10% | 4.3 | -9.4% | 2.9%
Cc1nnc(NC(=O)/C=C/c2ccco2)s1 | 2.3 | -1% | -3% | 11µM* | ? | -7.3% | 3.7%
COc1ccc2oc(C(=O)OCC(=O)NCc3ccco3)c(C)c2c1 | -4.2 | -9% | -8%[15.4 µM] | nt | nt | nt | 1.0%
Cc1nc(NC(=O)COC(=O)c2cc3c(s2)CCC(C)C3)c(Cl)cc1Cl (configuration not stated) | 4.9 | 10% | 13% | 13% | 5.4 | nt | 0.8%
CC1CCCCN1C(=O)C1COc2ccccc2O1 (configuration not stated) | -5.1 | 2% | 1%[15.4 µM] | 14% | -4.2 | nt | 1.6%
CCOc1ccc(C(=O)NC2CCN(S(C)(=O)=O)CC2)cc1 | -1.5 | 16% | -18% | 2% | 2.7 | 1.1% | 1.4%
COc1ccc(S(=O)(=O)N2CCCC2C(=O)Nc2ccc(O)cc2)cc1 (configuration not stated) | -1.5 | 1% | -25% | 13% | -3.4 | -0.7% | -2.9%
Cc1cc(N=Nc2ccccc2)cc(C)c1NC(=O)C(F)(F)F | 0.0 | -27% | -47% | nt | nt | ? | 9.0%
O=C(CSc1nnc([C@@H]2CCCN2)o1)c1ccc(Cl)cc1 | -2.4 | -4% | -31%[inhibitor] | -22% | 3.4 | 0.3% | 0.7%
C=CCn1c(SCC(=O)NC2CCCC2)nc2scc(-c3ccco3)c2c1=O | 2.3 | -14% | -23% | 10µM* | 12 | -6.3% | 4.1%
Cc1noc(/C=C/N(C)C)c1S(=O)(=O)N1CCc2ccccc21 | -0.2 | -6% | -33% | -5% | 15 | -2.2% | 9.6%
COc1ccc(Oc2nc3c(c(=O)n(C)c(=O)n3C)n2Cc2ccccc2)cc1 | -0.3 | 6% | -20% | 6% | -1.0 | -2.0% | 5.2%
COc1cccc(-c2nc(CS(=O)(=O)CC(=O)N3CCN(c4ccccn4)CC3)c(C)o2)c1 | 3.6 | -22% | -50%[inhibitor] | 5% | 1.4 | ? | 1.0%
COc1cccc(N(CC(=O)NC2CCCC2)C(=O)CCCC(=O)Nc2ccccn2)c1 | -1.3 | -19% | 37%[15.4 µM] | 7% | -0.3 | ? | -0.4%
CCN(Cc1ccccc1)C(=O)CS(=O)(=O)c1ccccc1 | -4.1 | -5% | 0%[15.4 µM] | 10% | 2.0 | nt | 0.7%
COC(=O)c1ccc(CN2CCCC(C(=O)c3cc(F)ccc3OC)C2)cc1 (configuration not stated) | -0.6 | 4% | -43%[inhibitor] | 7% | 0.6 | -11% | 1.8%
Cn1c(SCc2cccnc2)nc2c(c1=O)SCC2 | 3.4 | -2% | -12%[15.4 µM] | -20% | 2.1 | -11% | 1.4%
COc1ccc(C(CC(=O)N2CCCC(C)C2)c2c(OC)cc(OC)c3ccc(=O)oc23)cc1 (configuration not stated) | 0.6 | 1% | nt | -2%&-10% | 15&14 | ? | 2.3%
CCCCCc1ccnc(CC(=O)c2ccc(OC)cc2)c1 | -3.7 | 0% | 17% | nt | nt | nt | -2.0%
CCCCC1(C)Cc2ccccc2C(=S)N1 (configuration not stated) | -4.5 | -12% | -2% | 16% | 2.5 | -1.6% | -0.8%
CC(Nc1ccccc1)C(=O)Nc1ccc(F)cc1 (configuration not stated) | -2.4 | 7% | -8% | 4% | 1.0 | 1.7% | ?
NS(=O)(=O)c1ccc(NC(=O)CCCCC(=O)Nc2ccc(S(N)(=O)=O)cc2)cc1 | 4.1 | 2% | 6% | 1% | 10 | nt | 7.0%
CC(=O)N1CCN(c2ccccc2NC(=O)c2ccc3ccccc3c2)CC1 | -1.4 | ? | 16%[15.4 µM] | -7% | -1.4 | nt | -0.7%
CC1CCCCC1NC(=O)c1ccco1 (configuration not stated) | 0.4 | 5% | -1%[15.4 µM] | nt | nt | -0.6% | 0.3%
COc1ccccc1NC(=O)c1ccccc1C(=O)O | 0.1 | -9% | -6%[15.4 µM] | 17% | -2.4 | nt | 1.9%
CC(=C/C(=O)O)/C=C/c1ccco1 | -0.1 | 0% | 23% | ? | 5.9 | -1.3% | 0.1%
COC(=O)c1ccccc1NC(=O)Cn1c(SC)c(F)cnc1=O | 0.5 | -3% | 2% | -20% | -0.3 | -3.1% | 7.0%[38.3 µM]
O=C(O)CCC(=O)NNC(=O)CCC(=O)NCc1ccccc1 | -5.9 | 5% | -1% | 6% | -6.2 | 0.4% | 3.0%
COc1ccc(Cl)cc1CC1(C)C(=O)Nc2ccc(S(=O)(=O)NC3CCCCC3)cc21 (configuration not stated) | 7.4 | nt | nt | nt | nt | 0.2% | 17%
O=C(CCC(=O)c1ccc(Cl)s1)Nc1ncccc1O | 9.1 | 0% | 1% | nt | nt | -2.1% | -0.9%
O=C(c1ccc(F)cc1)C1CCN(Cc2cn[nH]c2-c2ccccc2)CC1 | -8.1 | -4% | 8%[15.4 µM] | -11% | -0.8 | -0.2% | -2.6%
COc1ccc(CN(C)C(=O)c2oc3ccccc3c2CSC)cc1F | -0.5 | -26% | 18% | 7% | -0.4 | nt | 0.1%
CS(=O)(=O)N(CC(=O)NCCSCc1ccccc1)c1ccccc1Br | -5.9 | -14% | ? | 13% | -0.1 | 1.0% | 0.7%
